# Screening results deposited in PubChem BioAssay by National Center for Advancing Translational Sciences (NCATS).
# SARS PLpro yeast: qHTS of Yeast-based Assay for SARS-CoV PLP | 330,000 compounds, 0.19% hits | Potency, µM (doses to about 32.9 µM), without a hit: at the highest dose activity, positive = growth rescue | S. cerevisiae expressing SARS-CoV PLpro, growth rescue; control for the full effect not named in the record; active means well fitted rising curve with a large enough effect; inconclusive means small, poorly fitted or top-dose-only effect; inactive means no such curve, though single readings can be large or run the other way; also: 0% is about no effect; nearly all actives have a fitted effect of over 55% in size; growth read by luminescence after 48 h
# Lassa entry inh: qHTS for Inhibitors of binding or entry into cells for Lassa Virus | 300,000 compounds, 1.2% hits | Lassa virus pseudotype entry inhibition, cell reporter; control for the full effect not named in the record | Potency, µM (series often up to 37.9 µM), without a hit: top-dose activity change, negative = inhibition, actives largely listed as inhibitors; active means well fitted inhibition curve with a large enough effect; inconclusive means small, poorly fitted or top-dose-only effect, or effect the other way; inactive means flat fitted curve, though single readings scatter; tested in HEK293 cells; also: % is scaled to controls: 0 for no effect and ±100 for the full control effect; nearly all actives have a fitted effect of over 50% in size; luciferase read-out
# 2A StopGo: High Throughput Screening for Foot and Mouth Disease Virus Antivirals. human cells with a luciferase reporter of 2A StopGo recoding; control for the full effect not named in the record. Potency, µM (doses to about 57.9 µM), inactives show at the highest dose signal change, negative = less light. 410,000 compounds, 1.2% hits. AID 1159524, 2015; active = well fitted falling curve with a large enough effect; inconclusive = small, poorly fitted or top-dose-only effect; inactive = no such curve, though single readings can be large or run the other way; tested in HEK293T cells; also: % is scaled to controls: 0 for no effect and ±100 for the full control effect; nearly all actives have a fitted effect of over 45% in size; luciferase light after 4 h
# Cruzain inh noDet: qHTS Assay for Promiscuous and Specific Inhibitors of Cruzain (without detergent) | Cruzipain (Trypanosoma cruzi), P25779 | purified cruzain, Z-FR-AMC fluorescence, no detergent | Potency, µM, without a hit: max response, negative = inhibition, hits mostly inhibitors | 200,000 compounds, 2.3% hits;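 also: plate controls were enzyme without inhibitor for no effect and buffer without enzyme for full effect; nearly all actives have a fitted effect of over 40% in size; top concentration of the series not given in the record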
# Target sequence (P25779 123-467 limits assumed): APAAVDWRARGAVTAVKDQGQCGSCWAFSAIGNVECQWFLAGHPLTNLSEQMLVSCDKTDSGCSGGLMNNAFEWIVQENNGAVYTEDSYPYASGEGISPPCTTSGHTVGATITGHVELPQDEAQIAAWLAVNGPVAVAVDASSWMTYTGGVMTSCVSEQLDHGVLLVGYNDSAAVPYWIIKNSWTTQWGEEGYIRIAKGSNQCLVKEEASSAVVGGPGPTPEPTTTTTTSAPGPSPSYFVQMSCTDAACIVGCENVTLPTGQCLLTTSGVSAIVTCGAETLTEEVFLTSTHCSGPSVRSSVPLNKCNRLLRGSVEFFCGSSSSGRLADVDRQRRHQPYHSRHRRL
#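 Purified cruzain at 1.5 nM, pre-incubated 15 min with compound at room temperature in 100 mM sodium acetate pH 5.5, 5 mM DTT, 0.00005% Triton X-100. Reaction started with 2 uM Z-FR-AMC; AMC fluorescence increase over 60 s gives rate.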
# Cruzain Triton: qHTS Assay for Promiscuous and Specific Inhibitors of Cruzain (with detergent) | purified cruzain, Z-FR-AMC fluorescence, 0.01% Triton | Potency, µM, for inactives: max response, negative = inhibition, hits mostly inhibitors | 200,000 compounds, 0.43% hits;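 also: plate controls were neutral wells for no effect and buffer without enzyme for full effect; nearly all actives have a fitted effect of over 40% in size; top concentration of the series not given in the record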
#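 Detergent-containing arm of a paired screen for aggregation-based inhibition: 0.01% Triton X-100 present. Cruzain at 1.5 nM cleaved 2 uM Z-FR-AMC at pH 5.5 with 5 mM DTT; AMC fluorescence gain over 60 s measured activity.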
# MARV entry inh: qHTS for inhibitors of binding or entry into cells for Marburg Virus; Potency, µM (titrated, usually from 37.8 µM), for the others: top-dose activity change, negative = inhibition, most hits filed as inhibitors; AID 540276, 2011; 300,000 compounds, 1.8% hits; Marburg virus pseudotyped entry inhibition, cell reporter; control for the full effect not named in the record; about a third of the inactives were read at about 46 µM; active = well fitted inhibition curve with a large enough effect; inconclusive = small, poorly fitted or top-dose-only effect, or effect the other way; inactive = flat fitted curve, though single readings scatter; tested in HEK293 cells; about a fifth of its hits are not listed in these tables; also: % is scaled to controls: 0 for no effect and ±100 for the full control effect; luciferase read-out
# RE007 growth inh: qHTS Assay for Inhibitors of the HIV-1 protein Vpr; S. pombe RE007 Vpr strain, BacTiter-Glo ATP luminescence, 24 h; control for the full effect not named in the record; Potency, µM (top dose mostly 92.2 µM), without a hit: top-dose activity change, negative = less growth; 360,000 compounds, 0.21% hits; active = well fitted falling curve with a large enough effect; inconclusive = small, poorly fitted or top-dose-only effect; inactive = no such curve, though single readings can be large or run the other way;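 also: % is scaled to controls: 0 for no effect and ±100 for the full control effect; nearly all actives have a fitted effect of over 50% in size; the assay follows cell death caused by Vpr and the record does not say whether a fall means rescue or toxicity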
#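 Fission yeast RE007 carrying one integrated HIV-1 vpr copy, seeded at OD 0.01 in PMG+AL medium with 23 nL pinned compound. Grown 24 h at 30 degrees; viability read by BacTiter-Glo luminescence after 5 min.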
# NS1 function inh: qHTS Assay for Inhibitors of Influenza NS1 Protein Function; S. cerevisiae slowed by influenza A NS1, growth recovery by OD600; Potency, µM (titrated, usually from 46.1 µM), for inactives: at the highest dose activity, positive = more growth; 270,000 compounds, 0.4% hits; AID 2326, 2010; active means well fitted rising curve with a large enough effect; inconclusive means small, poorly fitted or top-dose-only effect; inactive means no such curve, though single readings can be large or run the other way; also: nearly all actives have a fitted effect of over 50% in size
#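 Growth recovery, yeast-based: influenza A NS1 expressed in S. cerevisiae causes slow growth, and suppressors are detected by OD600. The parent strain without NS1 is used as positive control.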
# * hit, by the source's call; u = inconclusive; x = no result given; & = joins results of further samples; [ ] = another dose, or the depositor's remark. Unless noted, calls follow the shape of the dose curve; as a rule, active = well fitted curve in the direction sought with a large enough effect; inconclusive = small, poorly fitted or top-dose-only effect, or another doubt; inactive = no such curve, though single readings can be large; an effect the other way counts as inactive or inconclusive. Potency is read from the fitted curve at half-maximal effect.
SMILES,SARS PLpro yeast,Lassa entry inh,2A StopGo,Cruzain inh noDet,Cruzain Triton,MARV entry inh,RE007 growth inh,NS1 function inh
Cc1cc(CCCCCCCCc2cc(C)cc(=O)o2)oc(=O)c1,11.1%,-3.1%,-15.0%,6.3%,-4.8%,2.3%,16.2%,11.9%
Cc1ccc(-n2nnnc2SCC(=O)Nc2cccc(NC(=O)c3ccco3)c2)cc1C,0.5%,-17.8%,-2.0%,-7.1%,-1.9%,-4.8%,-6.5%,-9.6%
COc1ccc(-n2c(C)cc(=O)c3c2CC(C)(C)CC3=O)cc1,-3.9%,-8.8%,-2.4%,-4.5%,4.2%,16.0%,-1.6%,1.5%
CC(=O)C1=C(c2ccccc2)NC(=S)NC1c1ccc(O)c(O)c1 (stereo unspecified),-0.6%,-28.7%,-15.3%,x,x,-9.4%[46.1 µM],-2.9%,x
COc1ccc(NC(=O)NC(C)c2c(-n3cccc3)sc(C)c2C)cc1OC (stereo unspecified),x,x,u,u,-9.3%,-7.6%[46.1 µM],x,x
Cn1c(CN2CCOCC2)nnc1SCc1ccc(C#N)cc1,0.3%,x,14.3%,x,x,x,-10.2%,1.0%
NC1=NC(=O)/C(=C/c2ccc(OCC(=O)O)cc2)S1,-0.2%,x,-7.0%,x,x,x,0.6%,3.1%
CCCNC(=O)N1CCN(Cc2ccco2)CC1,7.1%,16.5%[46.1 µM],-0.9%,x,x,5.8%[46.1 µM],-7.4%,-1.0%
COc1ccccc1N1CCN(C2CCCN(C(=O)c3cscn3)C2)CC1 (stereo unspecified),-1.5%,x,-1.5%,x,x,x,-17.0%,u
O=C1C2C3C=CC(CC3)C2C(=O)N1c1ccc(Cl)cc1 (stereo unspecified),0.9%,x,-1.9%,x,x,x,-2.5%,22.2%
CN(C)S(=O)(=O)c1ccc2c(c1)C(CC(=O)O)OC2=O (stereo unspecified),4.4%,11.6%,8.5%,-7.0%,-2.2%,4.8%,4.3%,4.3%
O=CC(Cl)P(=O)(N1CCOCC1)N1CCOCC1 (stereo unspecified),-0.2%,x,-3.5%,x,x,x,17.6%,1.6%
COc1ccc(CN2CCN(S(=O)(=O)c3ccc(F)cc3)CC2)c(OC)c1OC,7.3%,-4.3%,u,5.8%,1.5%,-8.9%,-13.9%,-1.9%
Cc1nnc(SCC(=O)NCC2CCCO2)n1Cc1ccccc1 (stereo unspecified),7.7%,2.9%[46.1 µM],-4.0%,x,x,-24.9%[46.1 µM],-0.2%,x
Cc1cc(Br)cc2c1NC(=O)C2(O)CC(=O)c1ccco1 (stereo unspecified),-0.8%,-4.0%,-3.3%,x,x,2.6%,-16.6%,1.0%
COc1ccc(/C=N/NC(=O)c2cccnc2)cc1COc1ccc(NC(C)=O)cc1,-1.9%,-10.1%[46.1 µM],-11.9%,x,x,u,3.8%,-6.7%
CN(C)C(=O)/C(=C\c1cccc(Oc2ccccc2)c1)NC(=O)c1ccccc1,12.8%,9.1%,-21.4%,4.5%,-5.9%,1.4%,0.0%,-0.6%
c1cc(CCN2CCCC2)ccn1,-0.2%,x,4.8%,x,x,x,-9.6%,-1.6%
O=C(COC(=O)C1CCN(S(=O)(=O)c2ccc3c(c2)OCCO3)CC1)Nc1cccc2ccccc12,12.2%,-10.8%,-27.7%,u,-3.0%,-17.4%,-6.6%,u
CC(C)C1Nc2ccc(S(N)(=O)=O)cc2C2C=CCC21 (stereo unspecified),3.0%,-3.9%,-8.7%,-1.9%,-10.3%,-21.8%&-21.8%,9.5%,u
COc1ccc(C(c2sc3nc(C)nn3c2O)N2CCC(O)CC2)cc1OC (stereo unspecified),-0.1%,x,-14.6%,11.9%,5.3%,x,4.3%,0.6%
CCN(CC)S(=O)(=O)c1cc(NC(=O)CSc2nccn2C)ccc1C,0.2%,-18.0%,39.8%[activator],x,x,u,-13.4%,x
COc1ccc(NC2CCCN(C(=O)c3ccc4nc(C)c(C)nc4c3)C2)cc1OC (stereo unspecified),5.4%,x,-2.4%,x,x,x,-6.3%,3.8%
CCC(=O)N1c2ccccc2NC2=C(C(=O)CCC2)C1c1ccco1 (stereo unspecified),-1.9%,14.0%,-6.7%,x,x,4.7%[46.1 µM],-6.0%,x
CCOC(=O)/C=C/C(=O)Nc1ccc(S(=O)(=O)N2CCc3ccccc32)cc1,-14.0%,x,u,x,x,x,0.9%,-8.9%
CCCCCC(=O)NC(=S)Nc1ccc(N2CCOCC2)cc1,12.6µM*,1.1%,20.5%,-18.1%,-24.0%,25.2%,-3.3%,10.0%
CCCC[C@H](CN(N=O)[C@@H](Cc1ccccc1)CN(C)N=O)N(CCc1ccccc1)N=O,1.0%,x,18.0%,x,x,x,5.2%,1.1%
COc1cc(NC(=O)CN2C(=O)NC(C)(c3ccc4ccccc4c3)C2=O)c(C)cc1[N+](=O)[O-] (stereo unspecified),7.1%,-0.3%,u,20µM*,-7.5%,u,-2.2%,u
CC1(NCc2ccc(Cl)cc2)COP(=O)(NCc2ccccc2)OC1 (stereo unspecified),x,6.1%,-6.9%,x,x,-8.0%,0.5%,x
Cn1nc(C(F)(F)F)c(C(=O)Nc2ccc(Cl)cc2)c1Cl,-4.7%,14.0%,-2.1%,6.9%,-1.7%,0.8%,2.6%,-60.9%
CCCc1nc(NCc2ccccn2)c2nnn(Cc3ccccc3F)c2n1,-22.2%,2.1%,25.1µM*,4.5%,-5.5%,3.0%,7.3%,-6.6%
CC1(C)CC(CC(=O)O)CC(C)(C)N1,1.1%,-4.6%,-13.3%,x,x,21.3%[46.1 µM],6.2%,x
CCOc1ccc(OCC)c(S(=O)(=O)NCCOC23CC4CC(CC(C4)C2)C3)c1,-46.4%,u,-22.6%,3.1%,-5.6%,u,8.6%,-9.6%
Cc1ccsc1C(=O)Nc1ccc(S(=O)(=O)N2CCOCC2)cc1,0.1%,9.6%,14.3%,x,x,u,14.0%,x
COc1ccc(CNC(=O)[C@@H](C)NC(=O)C2CCN(C(=O)[C@@H](N)CCSC)CC2)cc1,5.0%,x,-16.8%,x,x,x,15.0%,-6.9%
Cc1ccc(Nc2ncnc3c2cnn3-c2ccccc2)c(C)c1,x,18.3%[46.1 µM],37.4%[activator],-0.8%,-6.7%,x,x,x
NC(=O)c1ccc2c(c1)S(=O)(=O)c1ccccc1C2=O,-1.0%,x,-9.2%,x,x,x,2.5%,1.9%
O=C1CS(=O)(=O)C2(C(=O)N(Cc3ccccc3)c3ccccc32)N1c1ccccc1 (stereo unspecified),x,4.5%[46.1 µM],0.0%,u,0.9%,x,x,x
CC1OC2(OC1C)C(=O)Nc1ccccc12 (stereo unspecified),-6.7%,-9.9%,6.8%,4.5%,0.7%,4.1%[46.1 µM],4.7%,-8.6%
CS(=O)(=O)N(CC(=O)N1CCN(c2ccccc2F)CC1)c1ccc2c(c1)OCCO2,-5.5%,-5.1%,-21.3%,0.8%,0.4%,u,4.9%,-5.4%
CCCCOC(=O)c1ccc(O)cc1,-23.2%,8.5%,0.0%,-6.9%&11.8%&-4.4%,2.3%&-6.9%&-4.9%,21.9%&21.9%&21.9%&21.9%&21.9%,19.6%,8.3%
CCCCn1c(SCC(=O)NC2CCS(=O)(=O)C2)nc2cc(S(N)(=O)=O)ccc21 (stereo unspecified),0.5%,6.4%[46.1 µM],39.7%[activator],x,x,11.0%[46.1 µM],-15.1%,x
CCOc1cc(NC(=O)c2ccccn2)c(OCC)cc1NC(=O)c1ccc(OC)cc1,-1.2%,-16.8%,-1.0%,x,x,-24.5%[46.1 µM],-0.1%,-0.9%
CNC(=O)c1ccccc1Sc1ccccc1C#N,-5.5%,-3.7%,-15.8%,x,x,2.8%[46.1 µM],18.5%,x
CCCc1nnc(NC(=O)Nc2ccc(OC)cc2)s1,-1.9%,x,26.4%,x,x,x,-11.8%,-5.9%
COC(=O)c1ccc(OC(=O)CCN2C(=O)C3CCCCC3C2=O)cc1 (stereo unspecified),-14.1%,u,17.3%,-2.3%,-2.6%,u,0.0%,-46.6%
COc1cc(NC(=O)c2ccc(NS(=O)(=O)c3c(C)noc3C)cc2)cc(OC)c1,1.8%,-11.8%,13.8%,7.4%,-5.8%,3.8%,4.9%,-30.9%
COc1ccc(F)cc1S(=O)(=O)NC1CCCC1,2.7%,u,54.1%[activator],-6.9%,0.4%,u,-12.3%,-6.2%
COc1ccc(OC)c(-n2c(-c3ccccc3)n[nH]c2=S)c1,-5.4%,-4.3%,16.0%,0.6%,-2.9%,2.5%,-6.4%,2.6%
C/C(=N\NC(=O)c1sccc1-n1cccc1)c1cccs1,0.5%,-3.7%[46.1 µM],-4.4%,x,x,-2.0%[46.1 µM],5.4%,x
CC(C)Sc1nc2sc3c(c2c2nnc(SCC(=O)NCc4ccco4)n12)CCCC3,0.7%,u,-1.5%,-1.5%,-6.6%,u,-1.0%,-9.7%
Fc1cccc(Nc2ncnc3sc4c(c23)CCC4)c1,-18.6%,17.7%,-16.1%,-1.8%,-6.1%,-10.7%,5.2%,-7.4%
CCOc1cc(CNCc2cccs2)cc(Br)c1OC,-1.6%,-12.3%,-20.8%,-5.4%,1.4%,-27.4%,-17.8%,7.2%
Cc1ccc(Cn2nnc3c(=O)n(CC(=O)N4CCCc5ccccc54)cnc32)cc1,0.2%,-16.8%,x,15.0%,-1.4%,17.0%,-20.4%,-15.0%
CC(C)(O)c1cn(-c2nonc2N)nn1,3.8%,6.2%,0.0%,-3.8%,4.1%,u,11.4%,0.7%
Cc1cccc(Nc2nc(N)nc(CCl)n2)c1,-0.7%,u,14.8%,x,x,u,0.5%,0.6%
